VACV Venus inh: vaccinia inhibition (Venus reporter); 330,000 tested, 0.46% active; Potency, µM (titrated, usually from 36.5 µM), for inactives: top-dose activity change, negative = inhibition, usual class: inhibitors; Vaccinia virus Venus reporter expression, fluorescence; active means well fitted inhibition curve with a large enough effect; inconclusive means small, poorly fitted or top-dose-only effect; inactive means no such curve, though single readings can be large or run the other way; tested in A549 cells; note: nearly all actives have a fitted effect of over 30% in size; inactives centre near -10
Vaccinia mCherry: inhibitors of vaccinia virus infection (mCherry reporter signal); 310,000 tested, 0.63% active; Potency, µM (doses to about 36.5 µM), without a hit: at the highest dose activity change, negative = inhibition, hits mostly inhibitors; Vaccinia virus mCherry reporter infection, fluorescence; about a quarter of the inactives have no number; active = well fitted inhibition curve with a large enough effect; inconclusive = small, poorly fitted or top-dose-only effect; inactive = no such curve, though single readings can be large or run the other way; tested in A549 cells; note: nearly all actives have a fitted effect of over 35% in size; inactives centre near -10
* = called active by the depositor; i = inactive; ? = inconclusive; . = not tested or not shown; & = joins results of further samples; [ ] = remark or other dose. % is set by controls: 0 for no effect and ±100 for the full control effect; potency is the fitted concentration of half-maximal effect.

molecule	VACV Venus inh	Vaccinia mCherry
Cc1ccc(C)c(Cn2cc(CCC(=O)NC3CCCCC3)c3ccccc32)c1	-17%	-16%
COc1ccc(OC)c(C(O)c2nc3ccccc3n2C(C)C)c1 (stereo not given)	-13%	-21%
OC(CNCC1CCCO1)Cn1c2ccccc2c2ccccc21 (stereo not given)	-15%	.
Cc1cc(O)c(C(C)C)cc1NC(=O)Nc1ccc([N+](=O)[O-])cc1	-17%	?
CCCn1c(SCc2ccc(Cl)cc2)nc2c1c(=O)[nH]c(=O)n2C	?	.
CCOc1ccc(S(=O)(=O)NCC(c2ccc3c(c2)OCO3)N2CCN(C)CC2)cc1 (stereo not given)	-18%	-26%
Cc1ccc(S(=O)(=O)NCC(c2ccc(N(C)C)cc2)N2CCc3ccccc32)cc1 (stereo not given)	-10%	i
CCOC(=O)CCNC(=O)N1CCCC(CCC(=O)N(C)CCc2ccccn2)C1 (stereo not given)	-18%	i
COc1ccc(NC(=O)CSc2nncn2N)c(OC)c1	-2%	-23%
COc1cc(C)nc(N(Cc2ccccc2)S(=O)(=O)c2ccccc2)n1	?	-28%
Cc1cc(NC(=O)C(C)SCC(=O)OCC(=O)N(Cc2ccccc2)C(C)(C)C)no1 (stereo not given)	-11%	-8%
O=C(O)CCn1[nH]c(=O)c2ccccc2c1=O	-8%	-11%
CC1CN(C(=O)/C=C/c2ccc([N+](=O)[O-])s2)CC(C)O1 (stereo not given)	?	?
Cc1ccc(C(=O)N2CC(=O)NC(=O)C2)cc1	-6%	0%
N#CCCN(Cc1cccnc1)C(=S)Nc1ccc(OC(F)F)cc1	-1%	i
CC1(C(=O)NS(=O)(=O)c2ccc(Cl)s2)CCN1C(=O)C1(c2ccccc2)CCCC1 (stereo not given)	-8%	i
O=C(Cn1c(C(F)(F)F)nc2ccccc21)N/N=C/c1ccco1	-11%	-13%
CCCCCCCCCCCCCCCCCCc1ccc(C(=O)/C=C/C(=O)O)cc1	-8%	-15%
O=C1CCCN1c1ccc(S(=O)(=O)NCc2ccco2)cc1	-18%	.
O=C(c1ccc(-c2ccccc2)cc1)C1CCCN(Cc2ccn[nH]2)C1 (stereo not given)	-20%	i
CC(C)c1ccc(S(=O)(=O)N2CCN(Cc3cccc(F)c3)CC2)cc1	-11%	-6%
COc1ccc(NC(=O)CSc2nc3ccccc3nc2N2CCOCC2)c(OC)c1	-10%&-7%	-3%&-8%
CCC(CC)C(=O)Nc1ccc(Cl)c(Cl)c1	-7%	.
CN(C)c1ccc(/C=C/C=N/Nc2nc(N3CCOCC3)nc(N3CCOCC3)n2)cc1	-17%	?
CCOC(=O)C1=C(C)NC(SCC(=O)O)=C(C#N)C1c1ccco1 (stereo not given)	-4%	.
COc1ccccc1NC(=O)COC(=O)c1ccc2c(c1)nc(C)n2-c1ccccc1	-9%	-23%
c1ccc(C2c3[nH]c4ccccc4c3CCN2Cc2cccn2-c2cccnc2)nc1 (stereo not given)	-1%	?
CSc1ccccc1C(=O)OCC(=O)Nc1c(C)n(C)n(-c2ccccc2)c1=O	-20%	-4%
Cc1ccccc1NC(=O)C1CCCN(C(=O)NCc2ccccc2)C1 (stereo not given)	1%	i
CCN(CC)CC(=O)Nc1scc2c1c(=O)oc1ccccc12	-9%	-7%

molecule	VACV Venus inh	Vaccinia mCherry
COc1ccc(C(CCN2CCCC2)c2c(OC)cc(OC)c3c(-c4ccccc4)cc(=O)oc23)cc1 (stereo not given)	?	-17%
CN(C)CCCN=Cc1c(O)n(CCc2ccc(F)cc2)c(=O)[nH]c1=O	-10%	-11%
Cc1nn(C)c(Cl)c1C(=O)NC(C(=O)O)c1ccccc1 (stereo not given)	-4%	-24%
Nc1ncnc2c1nc(-c1ccccc1)n2C1OC(CO)C(O)C1O (stereo not given)	0%	6%
CCCCNc1c([N+](=O)[O-])cc(C(=O)O)cc1[N+](=O)[O-]	-10%	i
Nc1cc(=O)[nH]c(=O)n1CCCc1ccccc1	-9%	-5%
COc1ccc(NC(=O)c2cc(S(=O)(=O)N3CCCCC3)c[nH]2)cc1	-15%	i
O=C(O)[C@H](Cc1ccccc1)NC(=O)N1CCOCC1	-6%	-11%
CCOC(=O)Cc1nnc(NC(=O)C(CC)Sc2nncn2C)s1 (stereo not given)	1%	-13%
CCOc1ccc(S(=O)(=O)Nc2ccc(C(=O)NCC(c3ccccc3)N(C)C)cc2)cc1 (stereo not given)	-19%	-5%
COc1ccc(/C=N/NC(=O)Nc2cccc3nsnc23)cc1	-18%	-24%
C=C(C)CSc1nnc([C@@H]2CCCN2)o1	-4%	-4%
COc1ccc(CCNC(=O)Cn2c(=O)n(-c3ccc(C)c(F)c3)c(=O)c3sccc32)cc1OC	-14%	-29%
C=CCC[C@@H](Cc1ccc(F)cc1)C(=O)OCCNC(=O)[C@@H](CC=C)CC(=O)N[C@@H](CO)Cc1ccccc1	-18%	?
CC(C)=CCN1CCN(Cc2cccc3c2OCO3)CC1CCO (stereo not given)	11%	2%
Cc1cc2nn(-c3ccc(F)cc3)nc2cc1N	5%	?
CC(CN1CCN(C)CC1)OC(=O)c1ccccc1Cl (stereo not given)	-6%	-8%
CS(=O)(=O)c1ccc(Sc2nc3ccccc3s2)c([N+](=O)[O-])c1	?	?
CS(=O)(=O)N1CCN(C2CCN(Cc3ccccc3)CC2)CC1	-1%	-14%
CCCCN(C(=O)c1cc(Cl)nc2ccccc12)c1c(N)n(Cc2ccccc2)c(=O)[nH]c1=O	-7%	i
C/C(=N\N=C1\NC(=O)CC(C(=O)O)S1)c1ccc(F)cc1 (stereo not given)	-10%	-10%
CC(=O)Nc1c(I)c(NC(C)=O)c(I)c(C(=O)O)c1I	-8%&-4%	-14%
CC(C)C(NC(=O)c1ccc(Cl)cc1)C(=O)NCC1CCCO1 (stereo not given)	-2%	-5%
Cc1sc2c(c1C)C(=O)/C(=C\Nc1ccncc1)S(=O)(=O)N2C	3%	-7%
CCOC(=S)SCC(=O)Nc1nc(-c2ccc(Br)cc2)cs1	?	?
COc1ccc(N(CC(=O)N2CCOCC2)S(=O)(=O)c2ccccc2)cc1Cl	-11%	i
COc1ccc([C@H]2CC(=O)C=C(c3cccc(Br)c3)C2)cc1OC	?	-24%
O=C(Cn1c(NCCO)nc2ccccc21)c1ccc([N+](=O)[O-])cc1	-5%	?
CCOC1=C2CN(S(=O)(=O)c3ccc(C)cc3)[C@H](c3ccccc3)C[C@@H]2N(S(=O)(=O)c2ccc(Br)cc2)[C@H](c2ccccc2)C1	-21%	0%
CCOc1ccc(C(=O)c2cn(CC(=O)Nc3ccc(OC)cc3)c3cc4c(cc3c2=O)OCCO4)cc1	3%	-7%

molecule	VACV Venus inh	Vaccinia mCherry
O=C(CCC(=O)N1CCN(C(=O)c2ccco2)CC1)c1ccc(F)cc1	-2%	-4%
CCOC(=O)C1CCN(S(=O)(=O)c2ccc(NC(=O)OC)cc2)CC1	-25%	i
COc1ccc(NC(=O)C2CC(=O)N(c3ccccc3F)C2)cc1S(=O)(=O)N1CCCCC1 (stereo not given)	-11%	3%
COc1cccc(CN(C(=O)c2cccs2)C2CCS(=O)(=O)C2)c1 (stereo not given)	-18%	-8%
O=C1CCC(=O)N1c1ccc(S(=O)(=O)Nc2cccc(Br)c2)cc1	-9%	i
O=C(/C=C/c1ccco1)NC1=NCCS1	-17%	i
O=C(CN(C1CCCCC1)S(=O)(=O)c1ccc(F)cc1)NCc1ccncc1	-1%	-19%
Cc1ccc2[nH]cc(C(c3ccccc3)c3ccc(C)s3)c2c1 (stereo not given)	-16%	-9%
CCOc1ccccc1C1CC(=O)Nc2c1c(=O)n(C)c(=O)n2C (stereo not given)	-1%	12%
COC(=O)[C@@H](NCc1cccc(CN[C@H](C(=O)OC)c2ccccc2)c1)c1ccccc1	-9%	-12%
CCCCNC(=S)Nc1ccccc1Cc1ccccc1	-12%	-21%
Cc1ccccc1-n1nc2c(c1NC(=O)c1ccco1)CS(=O)(=O)C2	-5%	-15%
COc1ccc(C(=O)N2CCN(S(=O)(=O)c3cc(Cl)ccc3OC)CC2)cc1	-14%	.
O=C(OCC(=O)N1N=C(c2ccc(Cl)cc2)CC1c1ccco1)c1ccco1 (stereo not given)	-8%	-1%
CCCCNC(=O)C1(C)CCN1Cc1ccc(C#N)cc1 (stereo not given)	6%	1%
COc1ccc(CN2CCN(S(=O)(=O)c3ccc(NC(C)=O)cc3)CC2)cc1OC	-28%	-11%
Cc1csc(=Nc2c(C)n(C)n(-c3ccccc3)c2=O)n1Cc1ccccc1	-18%&-11%	-4%
Cc1cc(=O)oc2cc(NC(=O)c3cccc(S(C)(=O)=O)c3)ccc12	-21%	-29%
NC(=O)c1ccc(CSc2nc3ccccc3s2)cc1	-17%	-17%
COc1cccc(C(=O)Nc2nc(SCc3ccc(Cl)cc3)n[nH]2)c1	-12%[7.34 µM]	-3%[7.34 µM]
Cc1ccc(NC(=S)N2CCCC2)cc1C	-5%	-21%
O=C(O)c1ccccn1	-11%	i
Cc1ccc(OCCn2cc(C(=O)C3CCCCC3)c3ccccc32)cc1	-10%	-13%
Cc1ccc(NS(=O)(=O)c2cn(C)c(C)n2)c(Br)c1	3%	-7%
O=C(Cc1ccc(F)cc1)NCCc1csc2nc(-c3ccccc3F)nn12	-19%	-13%
CCCCNC(=O)c1cc2n(n1)CCCN(Cc1ccc(C)cc1)C2=O	-9%	-19%
COC(=O)c1c(-c2ccc(Cl)cc2)noc1N1CCN(c2cccc(OC)c2)CC1	-23%	-11%
Nc1ccc(-c2cc3ccccc3[nH]2)cc1	-9%	-19%
O=C(O)c1ccc2c(=O)n3c(nc2c1)/C(=C/c1ccccc1C(F)(F)F)CCCC3	7%	0%
CCCCn1c(SCC(=O)N2CCCC2)nc2cc(S(N)(=O)=O)ccc21	-12%	i

Next part, starting with the last six of the part before.
molecule	VACV Venus inh	Vaccinia mCherry
O=C(Cc1ccc(F)cc1)NCCc1csc2nc(-c3ccccc3F)nn12	-19%	-13%
CCCCNC(=O)c1cc2n(n1)CCCN(Cc1ccc(C)cc1)C2=O	-9%	-19%
COC(=O)c1c(-c2ccc(Cl)cc2)noc1N1CCN(c2cccc(OC)c2)CC1	-23%	-11%
Nc1ccc(-c2cc3ccccc3[nH]2)cc1	-9%	-19%
O=C(O)c1ccc2c(=O)n3c(nc2c1)/C(=C/c1ccccc1C(F)(F)F)CCCC3	7%	0%
CCCCn1c(SCC(=O)N2CCCC2)nc2cc(S(N)(=O)=O)ccc21	-12%	i
O=C(CSc1nnc(-c2c[nH]c3ccccc23)o1)c1ccc(-c2ccccc2)cc1	-25%	-7%
COC(=O)CN1C(=S)N(c2ccc(Cl)cc2)C(=O)C1CC(=O)Nc1ccc(F)cc1 (stereo not given)	-9%	i
Cc1cc2nn(-c3ccc(F)cc3)nc2cc1NC(=O)c1cccc2ccccc12	4%	0%
O=C(NCc1ccccc1)c1cnc2n(c1=O)CCS2	-9%	-11%
Cc1oc(-c2ccccc2Cl)nc1CS(=O)CC(=O)NCc1cccs1 (stereo not given)	-19%	-5%
CCn1nc(C)c(NC(=O)c2ccc(Cl)cc2)c1C	-5%	-11%
CCC1(CC)Cc2ccccc2C(N)=C1C#N	-13%	.
COCCN(CC(=O)Nc1ccccc1C)S(=O)(=O)c1ccc(S(=O)(=O)N2CCCC2)cc1	-13%	-12%
COc1ccc(CNC(=O)Cc2csc3nc(-c4ccc(F)cc4)cn23)cc1	-11%	i
COc1ccc(-c2nnc3sc(C(C)N4C(=O)c5ccccc5C4=O)nn23)cc1 (stereo not given)	-4%	-8%
O=C(O)CSCC(=O)N1CCCN(c2ccc(C(F)(F)F)cn2)CC1	-4%	i
Nc1nc2ncc(CNc3ccc(C(=O)N[C@@H](CCC(=O)O)C(=O)O)cc3)nc2c(=O)[nH]1	-23%	-15%
CCN(CC)S(=O)(=O)c1cc(-c2nn(C)c(=O)c3ccccc23)ccc1C	-28%	-10%
CCOC(=O)C1CCN(c2nc3c(C)cccn3c(=O)c2/C=C(\C#N)S(=O)(=O)c2ccccc2)CC1	-14%	i
CC(C)[C@@H]1NC(=O)c2cc([N+](=O)[O-])cc(I)c2NCCC[C@@H](C(N)=O)NC(=O)[C@H](CO)NC1=O	1%	-1%
COc1ccccc1N(Cc1ccccc1)S(=O)(=O)c1cccc(C(=O)Nc2ccc(C)cn2)c1	-11%	-18%
Cc1cc(Cl)ccc1OCC(=O)N(Cc1sccc1C)C1CCS(=O)(=O)C1 (stereo not given)	-9%	-8%
Cc1noc(C)c1COc1ccccc1C(=O)N1CCN(S(=O)(=O)c2ccc(C(C)C)cc2)CC1	-13%	-12%

Entries of single compounds, looked up by structure. Screens in order: VACV Venus inh, Vaccinia mCherry
Record of CCOC(=O)CCNC(=O)N1CCCC(CCC(=O)N(C)CCc2ccccn2)C1 (stereo not given) : -18%, i
Record of COc1ccccc1NC(=O)COC(=O)c1ccc2c(c1)nc(C)n2-c1ccccc1 : -9%, -23%
Record of C/C(=N\N=C1\NC(=O)CC(C(=O)O)S1)c1ccc(F)cc1 (stereo not given) : -10%, -10%
